Screening results deposited in PubChem BioAssay by Broad Institute.
Env fusion inh – inhibitors of HIV-1 Env-driven cell-cell fusion, primary screen, HeLa-JRFL effector, CEM21 target cells, luciferase. inhibition, % at 12.3 µM. 360,000 tested, 1.1% active. AID 651610, 2012;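 active = mean replicate inhibition score of at least 50 and every replicate individually at or above 50; inconclusive = only one of the two criteria met; inactive = mean below 50 and not all replicates reaching 50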;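 note: 0% = plate neutral controls and 100% = maraviroc near 300 nM; one replicate is shown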
* hit, by the source's call; u = inconclusive; [ ] = remark or other dose. The list is partial; the hit share may differ from the screen's.

SMILES | Env fusion inh
C#CCN1C(=O)[C@]2(OCCC=C[C@H]2C)c2cc(OC)ccc21 | 2.0
O=C(C[C@H]1CC[C@H]2[C@@H](COC[C@@H](O)CN2Cc2cccc(C(F)(F)F)c2)O1)NCCc1ccncc1 | 10.4[16.7 µM]
O=[N+]([O-])c1ccc(SN2CCCCC2)c([N+](=O)[O-])c1 | -49.8
O=C(C[C@H]1C[C@H]2c3cc(NS(=O)(=O)c4ccccc4)ccc3O[C@H]2[C@H](CO)O1)N1CCOCC1 | -13.9[16.7 µM]
Cc1noc(C)c1NC(=O)Nc1ccc2c(c1)C(=O)N([C@H](C)CO)C[C@H](C)[C@H](CN(C)CC1CC1)OCCCC[C@@H](C)O2 | 8.1[16.7 µM]
O=C(C[C@H]1C[C@H]2c3cc(NC(=O)C4CCOCC4)ccc3O[C@H]2[C@H](CO)O1)NCc1ccc2c(c1)OCO2 | -9.9[16.7 µM]
C[C@@H](NC(=O)C[C@@H]1C=C[C@H](NC(=O)Nc2ccc3c(c2)OCO3)[C@@H](CO)O1)c1ccccc1 | -9.4[16.7 µM]
Cc1noc(C)c1S(=O)(=O)N(C)C[C@@H]1Oc2ccc(NC(=O)Nc3ccccc3)cc2CC(=O)N([C@@H](C)CO)C[C@H]1C | -8.3[16.7 µM]
COC(=O)C1=C(C)N(Cc2ccc(C(F)(F)F)cc2)C(=NCc2ccc(C(F)(F)F)cc2)NC1c1ccccc1C(F)(F)F (stereo not given) | 3.5
CCC1CCCCN1C(=S)NN=C(C)c1ccccn1 (stereo not given) | 44.7
CC(=O)N(C)C[C@H]1Oc2ncc(C#Cc3ccc(F)cc3)cc2C(=O)N([C@H](C)CO)C[C@@H]1C | -11.6[16.7 µM]
O=C(C1CCCCC1)N1[C@@H](CO)[C@@H](c2ccccc2)C12CN(Cc1ccc(F)cc1)C2 | 8.3[16.7 µM]
CN1[C@@H]2c3ccc(/C=C/c4ccccc4)c(=O)n3C[C@H]1[C@H](CO)[C@H]2C(=O)NC1Cc2ccccc2C1 | -4.9[16.7 µM]
O=C(C[C@@H]1C[C@H]2c3cc(NC(=O)Nc4ccc(C(F)(F)F)cc4)ccc3O[C@H]2[C@H](CO)O1)NCc1cccnc1 | 7.6[16.7 µM]
CCCN1[C@@H]2c3ccc(/C=C/c4ccccc4)c(=O)n3C[C@@H]2[C@@H](CO)[C@@H]1C(=O)NCc1ccncn1 | 3.3[16.7 µM]
O=C(NCC[C@H]1CC[C@H](NC(=O)c2cccnc2)[C@@H](CO)O1)Nc1ccc(C(F)(F)F)cc1 | 31.3[16.7 µM]
CCNC(=O)OC[C@H]1O[C@H](C#Cc2ccc(C(C)(C)C)cc2)C=C[C@H]1OC(C)=O | u
CN(C)c1ccc2c(c1)[C@H]1C[C@H](CC(=O)N3CCc4ccccc4C3)O[C@@H](CO)[C@H]1O2 | 10.0[16.7 µM]
CO[C@H]1CN(C)C(=O)c2ccc(NC(=O)Nc3cccc(F)c3)cc2OC[C@@H](C)NC[C@@H]1C | -3.1[16.7 µM]
CC(C)S(=O)(=O)N[C@@H]1c2cc3c(cc2[C@H](c2ccccc2)[C@H]1C)OCO3 | 25.9
CO[C@@H]1CN(C)C(=O)c2cc(NC(=O)C3CC3)ccc2OC[C@H](C)N(C(=O)CN2CCOCC2)C[C@H]1C | 5.4[16.7 µM]
CN1C(=O)[C@@]2(O[C@H]3[C@H]4C=C[C@@H]([C@H]5C(=O)N(Cc6ccccc6)C(=O)[C@@H]45)N3C3=C2C(=O)CC3)c2ccccc21 | -27.8
CCOC(=O)N[C@H](C(=O)N1CCC[C@H]1C(=O)NC1CCCC1)C1CCCCC1 | 9.5
C[C@@H]1CN([C@@H](C)CO)C(=O)Cc2cc(NC(=O)Nc3ccc(F)cc3)ccc2O[C@@H]1CN(C)S(=O)(=O)c1cn(C)cn1 | 4.0[16.7 µM]
CO[C@H]1CN(C)C(=O)c2ccc(NS(=O)(=O)c3cccc(Cl)c3)cc2OC[C@@H](C)NC[C@@H]1C | -11.9[16.7 µM]

A different layout for part of the listing above.
> CCNC(=O)OC[C@H]1O[C@H](C#Cc2ccc(C(C)(C)C)cc2)C=C[C@H]1OC(C)=O
  Env fusion inh: u

> O=C(C[C@@H]1C[C@H]2c3cc(NC(=O)Nc4ccc(C(F)(F)F)cc4)ccc3O[C@H]2[C@H](CO)O1)NCc1cccnc1
  Env fusion inh: 7.6[16.7 µM]

Continuation.
SMILES | Env fusion inh
CCCCc1c(-c2ccccc2OC)ncn1Cc1ccc(C(C)(C)C)cc1 | 19.9
C[C@@H]1CCCCO[C@H](CN(C)CC2CC2)[C@H](C)CN([C@@H](C)CO)C(=O)c2cc(NC(=O)NC3CCCCC3)ccc2O1 | -0.3[16.7 µM]
Cc1ccc2c(c1)-n1c(nc3ccccc3c1=O)C(CC(C)C)NC2=O (stereo not given) | -14.4
CCOC(=O)C1=C(C(=O)OCC)C2N(Cc3ccc(C#N)cc3)c3ccccc3[C@@]23C[C@@H](C(=O)OC)N(S(=O)(=O)c2c(C)noc2C)C3=N1 (stereo not given in full) | -8.2
COc1ccc(NC(=O)Nc2ccc3c(c2)[C@H]2C[C@@H](CC(=O)NCc4ccccn4)O[C@H](CO)[C@H]2O3)cc1 | -6.8[16.7 µM]
C[C@H](CO)N1C[C@H](C)[C@@H](CN(C)S(C)(=O)=O)Oc2cc(C3=CCCC3)ccc2S1(=O)=O | 6.4[16.7 µM]
CN(C)CCCNC(=O)C[C@H]1CC[C@H]2[C@H](COc3ccc(NS(C)(=O)=O)cc3C(=O)N2C)O1 | -24.5[16.7 µM]
CCCc1cc2c(O)ccc(O)c2c(=O)o1 | 1.0
CCOC(=O)N[C@H](C(=O)N1CCC[C@H]1C(=O)NC1CCCC1)c1ccccc1 | 13.8
O=C(NN=Cc1ccccc1Cl)C(=O)Nc1cccc(C(F)(F)F)c1 | -4.6
COCC(=O)Nc1ccc2c(c1)OC[C@@H](C)N(C(C)=O)C[C@H](C)[C@@H](OC)CN(C)C2=O | 8.8[16.7 µM]
CO[C@@H]1CN(C)C(=O)c2cc(NC(=O)C3CCOCC3)ccc2OC[C@H](C)N(CC2CC2)C[C@H]1C | 9.4[16.7 µM]
CCNC(=O)C[C@@H]1CC[C@@H]2[C@H](COC[C@@H](O)CN2C(=O)Nc2ccc(C(F)(F)F)cc2)O1 | 6.7[16.7 µM]
Cc1cc(N2CCN(C(=O)OC(C)(C)C)C[C@H]2C)ccc1N1C[C@@H](C)O[C@@H](C)C1 | 32.8
C[C@@H]1CN([C@@H](C)CO)C(=O)c2cc(NC(=O)CCCN(C)C)ccc2O[C@H]1CN(C)Cc1ccncc1 | 4.9[16.7 µM]
CN1C(=O)c2cc(NS(C)(=O)=O)ccc2OC[C@H]2O[C@H](CC(=O)NCc3ccc(-c4ccccc4)cc3)CC[C@@H]21 | 2.7[16.7 µM]
COc1ccc(-c2cnc3c(c2)C(=O)N([C@@H](C)CO)C[C@H](C)[C@@H](CN(C)C(=O)Cc2cccnc2)O3)cc1 | -8.0[16.7 µM]
C[C@H](CO)N1C[C@H](C)[C@H](CN(C)S(C)(=O)=O)Oc2ncc(C3=CCCCC3)cc2C1=O | 10.5[16.7 µM]
COc1cccc(S(=O)(=O)N(C)C[C@@H]2OCc3ccccc3-c3c(n(C)c4ccccc34)C(=O)N([C@@H](C)CO)C[C@@H]2C)c1 | 60.2*[16.7 µM]
Cc1noc(C)c1NC(=O)N(C)C[C@H]1OCc2ccccc2-c2c(n(C)c3ccccc23)C(=O)N([C@@H](C)CO)C[C@H]1C | -42.7[16.7 µM]
COCc1cc(N2CCNC[C@H]2C)ccc1N1C[C@@H](C)O[C@@H](C)C1 | 4.9
C/C=C/c1ccc([C@@H]2[C@H](CO)N(C(=O)CN(C)C)C23CN(C(=O)C2CCCC2)C3)cc1 | 8.5[16.7 µM]
COc1ccc(CN(C)C[C@@H]2Oc3c(NS(C)(=O)=O)cccc3C(=O)N([C@H](C)CO)C[C@H]2C)cc1 | 0.4[16.7 µM]
COc1ccccc1CNC(=O)C[C@@H]1C[C@@H]2c3cc(NC(=O)c4cccnc4)ccc3O[C@@H]2[C@H](CO)O1 | -4.2[16.7 µM]
O=C(C[C@H]1CC[C@H]2[C@@H](COC[C@@H](O)CN2Cc2ccc3c(c2)OCO3)O1)Nc1ccc(-c2ccccc2)cc1 | u

3 entries picked at random from those above:
SMILES | Env fusion inh
CO[C@@H]1CN(C)C(=O)c2cc(NC(=O)C3CCOCC3)ccc2OC[C@H](C)N(CC2CC2)C[C@H]1C | 9.4[16.7 µM]
COc1cccc(S(=O)(=O)N(C)C[C@@H]2OCc3ccccc3-c3c(n(C)c4ccccc34)C(=O)N([C@@H](C)CO)C[C@@H]2C)c1 | 60.2*[16.7 µM]
CN1C(=O)c2cc(NS(C)(=O)=O)ccc2OC[C@H]2O[C@H](CC(=O)NCc3ccc(-c4ccccc4)cc3)CC[C@@H]21 | 2.7[16.7 µM]

The list continues:
SMILES | Env fusion inh
COc1ccc(CN(C)C[C@@H]2OCCCC[C@H](C)Oc3ccc(NC(=O)C4CCCCC4)cc3C(=O)N([C@@H](C)CO)C[C@@H]2C)cc1 | -21.1[16.7 µM]
CNC(=O)c1ccccc1C1(O)c2ccccc2CCc2ccccc21 | -10.8
C[C@H](CO)N1C[C@H](C)[C@H](CN(C)Cc2ccccc2)OCCCC[C@H](C)Oc2ccc(NS(C)(=O)=O)cc2C1=O | 10.5[16.7 µM]
O=C(O)C[C@@H]1CC[C@@H](NC(=O)c2ccncc2)[C@@H](CO)O1 | 8.8[16.7 µM]
CO[C@H]1CN(C)C(=O)c2cc(NC(=O)NC(C)C)ccc2OC[C@H](C)N(Cc2ccccc2)C[C@H]1C | -288.0[16.7 µM]
CC(C=NN=C1C(=O)Nc2ccccc21)=Cc1ccccc1 | 6.7
C[C@@H]1CN([C@@H](C)CO)C(=O)c2ccccc2-c2ccccc2CO[C@@H]1CN(C)Cc1ccncc1 | -7.5[16.7 µM]
C[C@@H]1CN([C@H](C)CO)C(=O)Cc2cc(NS(C)(=O)=O)ccc2O[C@@H]1CN(C)C(=O)Nc1cccc2ccccc12 | 4.1[16.7 µM]
C[C@@H](NC(=O)C[C@@H]1CC[C@H](NC(=O)c2cccnc2)[C@H](CO)O1)c1ccccc1 | -7.6[16.7 µM]
COC(=O)C1=C(C)N(Cc2ccc(C(F)(F)F)cc2)C(=NCc2ccccc2C(F)(F)F)NC1c1ccccc1 (stereo not given) | -158.4
COc1ccc2c3c(n(C)c2c1)[C@H](CO)NCC31CCN(CC2CC2)CC1 | -9.4[16.7 µM]
O=C(C[C@H]1C[C@@H]2c3cc(NC(=O)C4CCC4)ccc3O[C@@H]2[C@@H](CO)O1)NC1CCCC1 | -16.0[16.7 µM]
CC(C)NC(=O)N(C)C[C@H]1OCCCC[C@@H](C)Oc2ccc(NC(=O)CCCN(C)C)cc2C(=O)N([C@H](C)CO)C[C@@H]1C | 3.7[16.7 µM]
O=C(NCCCN1CCOCC1)[C@H]1[C@H](CO)[C@H]2Cn3c(cccc3=O)[C@@H]1N2C(=O)NC1CCCC1 | 11.7[16.7 µM]
COc1ccccc1S(=O)(=O)N(C)C[C@@H]1OCc2cn(nn2)CCCC(=O)N([C@@H](C)CO)C[C@@H]1C | 6.9[16.7 µM]
CC(=O)CC(=O)O[C@@H]1C=C[C@H](NC(=O)OC(C)(C)C)C1 | -19.5
CC(C)(C)c1ccc(C#C[C@@H]2C=C[C@H](O)[C@@H](COC(=O)Nc3ccccc3)O2)cc1 | -18.1
COc1ccc(NC(=O)Nc2ccc3c(c2)C(=O)N([C@H](C)CO)C[C@@H](C)[C@H](CN(C)CC2CC2)OCCCC[C@@H](C)O3)cc1 | -3.8[16.7 µM]
O=C(C[C@@H]1CC[C@@H]2[C@H](COC[C@@H](O)CN2Cc2nccs2)O1)N1CCC(Cc2ccccc2)CC1 | 20.3[16.7 µM]
C[C@H]1CN(S(=O)(=O)C(C)(C)C)[C@@H](CCO)/C1=C\CCO | 3.1
COc1cccc(S(=O)(=O)N(C)C[C@H]2OCc3ccccc3-c3c(n(C)c4ccccc34)C(=O)N([C@@H](C)CO)C[C@H]2C)c1 | -103.7[16.7 µM]
CN1CCN(C(=O)C[C@H]2C[C@@H]3c4cc(NC(=O)Cc5ccncc5)ccc4O[C@@H]3[C@H](CO)O2)CC1 | 6.5[16.7 µM]
C#Cc1ccc([C@@H]2C=C(C(=O)N3CCCCCCC3)O[C@H](OCC)[C@H]2CCCO)cc1 | 25.4[16.7 µM]
O=C(Cc1ccncc1)NCC[C@H]1CC[C@@H](NC(=O)C2CCC2)[C@H](CO)O1 | 7.5[16.7 µM]
CN(C)C(=O)c1ccc(-c2ccc([C@@H]3[C@H](C#N)N[C@H]3CO)cc2)cc1 | -17.7[16.7 µM]
(next part)
SMILES | Env fusion inh
Cc1noc(C)c1S(=O)(=O)Nc1ccc2c(c1)C(=O)N([C@H](C)CO)C[C@H](C)[C@@H](CN(C)Cc1ccc(C(F)(F)F)cc1)OCCCC[C@H](C)O2 | -6.7[16.7 µM]
CCCN1[C@H](C(=O)NC2CCC2)[C@@H](CO)[C@@H]2Cn3c(ccc(-c4cccnc4)c3=O)[C@@H]21 | 6.8[16.7 µM]
CC(C)c1cn(CC[C@H]2CC[C@H](NC(=O)C3CC3)[C@@H](CO)O2)nn1 | -43.2[16.7 µM]
CCCN(C)C[C@H]1Oc2cc(C#Cc3cccc(OC)c3)ccc2S(=O)(=O)N([C@@H](C)CO)C[C@H]1C | 36.8[16.7 µM]
COC(=O)C1=C(C)N(C)C(=NCc2cc(OC)c(OC)c(OC)c2)NC1c1cccc(F)c1 (stereo not given) | -21.5
Cc1cc(N2CCN(CC(C)(C)O)C[C@@H]2C)ccc1N1CCN(Cc2ccccc2)[C@@H](C)C1 | 19.8

Three compounds out of the list, arranged by SMILES length, highest first.
SMILES | Env fusion inh
CCCN(C)C[C@H]1Oc2cc(C#Cc3cccc(OC)c3)ccc2S(=O)(=O)N([C@@H](C)CO)C[C@H]1C | 36.8[16.7 µM]
Cc1cc(N2CCN(CC(C)(C)O)C[C@@H]2C)ccc1N1CCN(Cc2ccccc2)[C@@H](C)C1 | 19.8
CC(C)c1cn(CC[C@H]2CC[C@H](NC(=O)C3CC3)[C@@H](CO)O2)nn1 | -43.2[16.7 µM]
